# Screens (PubChem)
# Rango dissoc inh – inhibitors of RanGTP-induced Rango-importin beta complex dissociation. AID 540253. O95149+P62826. Potency, µM (doses to about 46.1 µM), for inactives: at the highest dose activity change, negative = inhibition. 0.071% of 340,000 active. Biochemical FRET Rango-importin beta, RanGTP-induced dissociation; active means falling FRET ratio curve, often poorly fitted, with flat reads before Ran was added; inconclusive means other falling curves, or compound fluorescence or quenching; inactive means flat or rising ratio curve;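 note: potency is the fitted concentration of half-maximal effect; % of control where 0% means no effect; nearly all actives have a fitted effect of over 45% in size; -100% = wells without RanGTP and RCC1; the record marks most hits as doubtful in a second field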
#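 Compounds preincubate 5 min with complex of recombinant Rango and importin beta in PBS with 1 mM DTT. Ran (0.6 uM) loaded with 2 mM GTP plus 0.2 uM RCC1 starts dissociation; FRET is recorded 45 min later.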
# GLA inh pH 4.5 – inhibitors of human alpha-galactosidase A at pH 4.5; AID 1467; purified enzyme, 4-MU-alpha-Gal fluorescence, pH 4.5; activity change, negative = inhibition, % at 105 µM; 230,000 tested, under 10 active; P06280; inconclusive = small, poorly fitted or top-dose-only inhibition, or a rising curve; inactive = flat fitted curve, though single readings scatter; no compound was filed as active;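 note: 0% = full activity with enzyme and -100% = basal without enzyme; dose as in the result columns while the protocol names 77 µM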
# miR-21 FLuc – raises the signal of a miR-21 reporter; HeLa miR-21 FLuc reporter, luciferase, 48 h; Potency, µM (top dose mostly 38.3 µM), without a hit: at the top dose reporter change, positive = more light; 340,000 tested, under 10 active; AID 2288; active = well fitted rising curve with a large enough effect; inconclusive = small, poorly fitted or top-dose-only effect; inactive = no such curve, though single readings can be large or run the other way;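 note: % of control where 0% means no effect; miR-21 action dims this reporter so a rising signal means less miR-21 action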
#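 Luminescence from a firefly luciferase reporter carrying a miR-21 binding site downstream, stably expressed under a CMV promoter in HeLa cells that make miR-21 endogenously, reports miRNA modulation after 48 h compound exposure up to approximately 40uM final.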
# Rango complex inh – prevents formation of the Rango-importin beta complex | 0.031% of 340,000 active | AID 540263 | Q14974 | Rango CFP/YFP FRET sensor + importin beta, 45 min | Potency, µM (highest dose often 92.2 µM), without a hit: at the top dose inhibition of complex formation; active = rising FRET ratio curve, often small or poorly fitted; inconclusive = mostly compound fluorescence or quenching in the first reads; inactive = flat curves in all reads;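 note: potency is the fitted concentration of half-maximal effect; 0% = DMSO wells and 100% = buffer wells lacking importin beta; nearly all actives have a fitted effect of over 15% in size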
# Target sequence (Q14974 whole entry, looked up): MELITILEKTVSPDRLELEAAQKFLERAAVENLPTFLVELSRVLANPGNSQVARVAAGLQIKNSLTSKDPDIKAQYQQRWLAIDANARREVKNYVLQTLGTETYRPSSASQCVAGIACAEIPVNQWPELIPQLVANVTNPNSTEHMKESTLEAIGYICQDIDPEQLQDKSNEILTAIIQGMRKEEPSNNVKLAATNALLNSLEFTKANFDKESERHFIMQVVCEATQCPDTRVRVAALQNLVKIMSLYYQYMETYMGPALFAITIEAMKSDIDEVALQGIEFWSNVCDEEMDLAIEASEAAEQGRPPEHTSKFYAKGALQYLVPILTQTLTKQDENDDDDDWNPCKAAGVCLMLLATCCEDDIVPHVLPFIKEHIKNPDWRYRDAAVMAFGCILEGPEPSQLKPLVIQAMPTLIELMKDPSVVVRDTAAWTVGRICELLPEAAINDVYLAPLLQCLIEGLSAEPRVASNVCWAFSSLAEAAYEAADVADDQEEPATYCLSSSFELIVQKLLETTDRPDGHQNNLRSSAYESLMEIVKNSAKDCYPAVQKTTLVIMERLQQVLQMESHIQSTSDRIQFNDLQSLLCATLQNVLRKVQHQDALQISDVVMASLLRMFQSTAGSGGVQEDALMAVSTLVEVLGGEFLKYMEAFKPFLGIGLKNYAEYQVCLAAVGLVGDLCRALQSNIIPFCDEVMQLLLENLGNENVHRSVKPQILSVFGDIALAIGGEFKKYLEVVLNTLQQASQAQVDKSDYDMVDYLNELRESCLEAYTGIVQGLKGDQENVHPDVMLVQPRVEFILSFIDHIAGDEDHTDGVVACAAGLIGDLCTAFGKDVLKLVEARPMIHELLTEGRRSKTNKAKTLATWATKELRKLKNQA
#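 Inhibition scored from the CFP 486 nm/YFP 530 nm FRET ratio 45 min after adding 0.125 microM importin beta to 50 nM Rango biosensor preincubated 5 min with compound (room temperature, PBS with DTT, Tween-20, BSA). No-importin wells as positive control.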
# Starred values were filed as active, the others as inactive; ? = inconclusive; nt = not tested or not shown; [ ] = another dose, or the depositor's remark. A portion of the library (hit frequency here may not be typical).
SMILES	Rango dissoc inh	GLA inh pH 4.5	miR-21 FLuc	Rango complex inh
O=C1Nc2ccccc2C(O)(C(=O)NCc2ccco2)N1c1ccc(Cl)c(Cl)c1 (stereo not given)	-6%	1	-11%	-3.4%
CC(C)c1ccc(CNC(=O)C2CCCN2S(=O)(=O)c2ccccc2)cc1 (stereo not given)	8%	nt	16%	2.4%
CC(C)NC(=O)c1sc2nc(-c3cccs3)cc(-c3cccs3)c2c1N	13%	-4	0%	2.7%
COc1ccc2c(c1)CCCC21NC(=O)NC1=O (stereo not given)	0%	-7	-1%	-3.4%
Nn1c(C2CCC2)nc2cc(Cl)ccc2c1=O	-2%	nt	-1%	-5.1%
CCC(C)NC(=O)CNC(=O)c1nn(-c2ccc(OC)c(Cl)c2)c(=O)c2ccccc12 (stereo not given)	12%	nt	4%	1.6%
CCCc1c(C)c2ccccc2[nH]c1=O	1%	7	-15%	1.0%
COCCn1cnc2c1c(=O)n(CC(=O)NCC(F)(F)F)c(=O)n2Cc1ccccc1	-6%	nt	2%	-0.2%
CN(C(=O)c1cccc(NC(=O)C2CCN(C(=O)OC(C)(C)C)CC2)c1)C1CCCCC1	1%	nt	nt	0.0%
O=C(CSc1nnc(NC(=O)c2ccccc2)s1)NCc1ccco1	-5%	nt	-27%	-2.4%
CCOc1ccc(N(CC(=O)NCc2ccccc2)S(=O)(=O)c2c(C)noc2C)cc1	-8%	-9	-6%	-1.3%
COc1ccc(-c2noc(CCC(=O)Nc3cccnc3)n2)cc1OC	-1%	-2	-24%	-2.9%
CCn1c(Cc2ccccc2)nnc1SCC(=O)c1cccc([N+](=O)[O-])c1	4%	-3	-10%	-5.1%
O=C(Cc1cccs1)Nc1cccc(-c2nnc(-c3ccco3)o2)c1	8%	0	-3%	5.7%
Cc1ccc(C(C)NC(=O)c2c(C)noc2C)cc1C (stereo not given)	0%	2	-7%	1.2%
CC(=O)Oc1ccc(N2C(=O)C3C(C2=O)C(C(=O)c2ccc(Cl)cc2)N2CCCC32)cc1 (stereo not given)	4%	-7	17%	3.9%
COc1ccc(C(=O)Nn2c(C)ccc2C)cc1OC	16%	-3	-1%	-0.9%
CC(C)C(=O)Nc1cc2c3c(c1)CCN3C(=O)CC2	6%	nt	-3%	7.1%
CCOC(=O)Cc1cn(C(=O)OC(C)(C)C)c2ccccc12	-3%	nt	nt	-1.4%
Cc1nn(Cc2ccc(Cl)cc2Cl)c(C)c1NC(=O)NC12CC3CC(CC(C3)C1)C2	10%	-1	12%	-1.9%
Cc1c(Cl)c([N+](=O)[O-])nn1CCCC(=O)Nc1sc2c(c1C(N)=O)CCC(C)C2 (stereo not given)	-17%	9	-8%	3.9%
CC(C)(C)OC(=O)C[C@H]1C/C=C\C[C@@H](CC(=O)N[C@H](CO)Cc2ccccc2)C(=O)NCCOC1=O	6%	nt	nt	-0.8%
COC(=O)C(C)(C(=O)OC)c1ccccc1[N+](=O)[O-]	-7%	1	1%	-0.5%
COc1cc(NC(=S)NC(=O)c2cccs2)ccc1NC(=O)C(C)C	-4%	nt	-22%	6.6%
Cc1ccc(-n2ncc3c(=O)n(CC#N)cnc32)cc1	-1%	-8	-9%	-3.5%
CCCCn1c(SCC(=O)N(C)C)nnc1-c1ccncc1	-4%	2	1%	3.9%
CCCCN1C(=O)C(=O)NC[C@@H]1C(C)O (stereo not given in full)	-15%	7	-1%	0.7%
COc1cc(-n2c(=O)c3ccccc3n(Cc3ccccc3)c2=O)cc(OC)c1OC	3%	3	-2%	-0.3%
Cc1cc(Cl)cc(Cl)c1CNc1c([N+](=O)[O-])c(=O)oc2ccccc12	-14%	3	-4%	0.6%
CSc1nnc(N2C(=O)C(O)=C(C(=O)c3ccco3)C2c2ccccc2)s1 (stereo not given)	?	nt	-1%	?
O=S(=O)(N/N=C1\CCCc2ccccc21)c1ccccc1	19%	nt	nt	2.3%
Cc1cccc(C)c1NC(=O)CN1N=NC2C(=O)N(c3cccc(Cl)c3)C(=O)C21 (stereo not given)	4%	-23	-13%	-4.8%
COc1ccc(Cn2c(O)c(C=Nc3ccc(OC)cc3)c3ccccc3c2=O)cc1	?	-7	2%	?
CSc1nnc(C2CCCN(CC(=O)Nc3ccccc3N3CCOCC3)C2)n1C(C)C (stereo not given)	11%	nt	0%	0.0%
COC(=O)Cc1ccc(NC(=S)NCCSc2ccc(Cl)cc2)cc1	-9%	-7	8%	-0.2%
COC(=O)c1sc(S(=O)(=O)N2CCCCC2C(=O)O)c(C(=O)OC)c1C (stereo not given)	0%	-2	-1%	-2.5%
Cc1cccc(C)c1OCc1cc(C(=O)N2CC3C[C@@H]4CC2C[C@H](C3)C4)no1	4%	nt	-17%	-2.1%
O=C(CSC1=NCCS1)c1ccc(Cl)cc1	-5%	-3	-6%	-2.6%
COc1ccc(CCNC(=O)C2CCCCC2C(=O)O)cc1OC (stereo not given)	nt	10	-2%	nt
O=C(NC1CCCCC1)C(c1ccco1)N(CCc1ccccc1)C(=O)C(F)(F)F (stereo not given)	-13%	-7	-4%	-1.2%
O=C(O)/C=C/S(=O)(=O)c1ccc2ccccc2c1	?	5	2%	0.4%
CCn1c2ccccc2c2cc(C3C(C#N)=C(N)Oc4n[nH]c(COC)c43)ccc21 (stereo not given)	-29%	-19	?	?
CCOC(=O)CC1(NC(=O)C2CCC(=O)N(CCc3ccc(OC)cc3)C2)CCCCC1 (stereo not given)	-3%	nt	1%	-1.7%
Cc1c(N2C(=O)CSC2c2ccc(F)cc2)c(=O)n(-c2ccccc2)n1C (stereo not given)	0%	-4	0%	0.7%
CCOc1ccc(CNc2nc3ccccc3n2C)cc1	?	nt	-58%	?
Cc1cc(C)c2nc(N3CCC(C(=O)NCCCN4CC(C)CC(C)C4)CC3)sc2c1 (stereo not given)	5%	-7	-42%	-1.7%
C=CCn1c(=O)c2ccccc2n2c(SCc3csc(-c4ccccc4)n3)nnc12	7%	13	-3%	0.7%
COc1ccc(/C=N/OCc2ccccc2C#N)c(OC)c1	-7%	nt	-40%	4.2%
COc1ccc(C(=O)Nc2ccc(N3CCN(C)CC3)cc2)cc1[N+](=O)[O-]	22%	-3	-1%	0.0%
Cc1cccc2[nH]c(CN(C)C(=O)CC3C(=O)NCCN3CC(C)(C)C)nc12 (stereo not given)	-7%	4	-2%	-5.5%

# Continued.
SMILES	Rango dissoc inh	GLA inh pH 4.5	miR-21 FLuc	Rango complex inh
O=C(COC(=O)COc1ccc(Br)cc1)Nc1ccc2c(c1)OCCO2	-2%	nt	nt	?
Cc1cc(NC(=O)c2ccccc2-c2ccccc2)ccc1Br	-24%	-5	18%	0.2%
COc1cccc2cc(C(=O)Nc3ccc(F)cc3)c(=Nc3ccc(C(=O)O)cc3)oc12	-1%	-10[21.1 µM]	-21%	5.7%
CC(=O)Nc1ccccc1NS(=O)(=O)c1ccc(Cl)cc1	-8%	2	8%	-1.0%
CCn1c(CC(=O)Nc2ccccc2)nnc1SCC(=O)NC1CCCC1	-3%	nt	6%	-1.5%
CCn1c(C)[n+](CC)c2ccc(C(=O)N(C)c3ccccc3)cc21	-9%	-3	-2%	0.4%
COc1ccc(/C=C/C(=O)NCCc2c[nH]c3ccccc23)cc1OC	-17%	nt	-8%	4.4%
C/C(Cn1nnc([N+](=O)[O-])n1)=N\NC(=O)c1ccccc1O	3%	5	27%	-0.4%
CC1(C)CC(=O)c2cc(C(=O)NC3CCSC3=O)c(=O)n(-c3ccc(Cl)cc3)c2C1 (stereo not given)	6%	-1	-10%	-1.5%
CCC(=O)Nc1ccc2nn(-c3ccc(F)cc3)nc2c1	-17%	nt	-47%	?

# Another view of two compounds above:
# Sequence of screens: Rango dissoc inh, GLA inh pH 4.5, miR-21 FLuc, Rango complex inh
- CCn1c(C)[n+](CC)c2ccc(C(=O)N(C)c3ccccc3)cc21
 : -9%, -3, -2%, 0.4%
- C/C(Cn1nnc([N+](=O)[O-])n1)=N\NC(=O)c1ccccc1O
 : 3%, 5, 27%, -0.4%

# Other entries:
SMILES	Rango dissoc inh	GLA inh pH 4.5	miR-21 FLuc	Rango complex inh
COC(=O)c1ccccc1-c1cn(C)c2ccccc2c1=O	3%	nt	-1%	-2.6%
COc1ccc(CNC(=O)C2CCN(S(=O)(=O)N3CCOCC3)CC2)cc1	0%	0	1%	0.1%
COc1ccc(Cn2c(=O)[nH]c3cc(C(=O)NCCCN4CCCC4=O)ccc3c2=O)cc1	-8%	?	-4%	-0.9%
C[N+](C)(C)CC/C=C1/c2ccccc2CSc2ccccc21	-12%	0	-8%	1.7%
c1ccc(-c2nnc(-c3ccco3)o2)cc1	-5%	-7	-48%	-1.7%
Cc1ccc(S(=O)(=O)N2CCOCC2)cc1NC(=O)CSc1nnc2n1CCCCC2	17%	nt	nt	3.2%
Cc1ccc(S(=O)(=O)N(CC(=O)N/N=C/c2cccc3c2OCCO3)c2ccccc2F)cc1	17%	-14	0%	0.5%
Cn1c2ccccc2c2cc(C(=O)O)ccc21	5%	4	-9%	4.2%
Cn1c(=O)c(Sc2ccc(Cl)cc2)c(O)c2ccccc21	6%	0	1%	-0.2%
O=C(CN(c1ccc(F)cc1)S(=O)(=O)c1ccc2c(c1)OCCO2)NCc1cccnc1	-4%	5	1%	3.7%
COc1ccc(CCn2c(NN=C3CCCCC3)nc3c2c(=O)[nH]c(=O)n3C)cc1	5%	8	12%	-2.6%
O=C(C1=C[C@H](c2coc3ccccc3c2=O)C[C@H](OCCCCO)O1)N1CCOCC1	6%	4	3%	-1.6%
Cc1ccc2oc(C(=O)N3CCC(O)(c4ccccc4)CC3)c(C)c2c1	8%	nt	-18%	-2.0%
CC1CCCN(S(=O)(=O)c2cccc(C(=O)NCC3CCCO3)c2)C1 (stereo not given)	-1%	nt	nt	-4.9%
COc1ccc(CNC(=O)c2cnc(C)cn2)cc1	-2%	5	-9%	-3.4%
O=C(NC(=S)Nc1ccc(O)cc1)c1cncc(Br)c1	1%	nt	nt	2.2%
O=C(CCn1c(=O)sc2ccccc21)NCCN1CCOCC1	2%	nt	nt	5.6%
CN(Cc1cnn(C)c1)C(=O)CC1C(=O)NCCN1Cc1cccc(Oc2ccccc2)c1 (stereo not given)	-1%	-7	-1%	?
O=C(CC1C(=O)NCCN1Cc1cccc(C(F)(F)F)c1)NC1CCOCC1 (stereo not given)	-2%	nt	-3%	-1.4%
O=C(C1CCC1)N1CCc2cc(S(=O)(=O)N3CCCCC3)ccc21	-14%	-1	-4%	-7.4%
COc1ccc(CCNc2oc(-c3ccc(OC)c(OC)c3)nc2P(=O)(OC)OC)cc1OC	-9%	3	-12%	-0.1%
Cc1ccc(NC(=O)c2cccc(NC(=O)CCC(=O)O)c2)cc1C	18%	2	11%	-0.8%
CCn1nnc2cc(C(=O)Nc3cc(Cl)ccc3C)ccc21	0%	nt	nt	1.8%
Cc1ccc(NC(=O)CSCC(=O)OCc2cc(=O)oc3cc(O)ccc23)c(C)c1	?	nt	nt	?
COc1ccc2[nH]c(=O)c(CN(Cc3ccccc3)Cc3nnnn3CC3CCCO3)cc2c1 (stereo not given)	-15%	4	-22%	2.3%
O=C(N/N=C/c1ccc(N2CCOCC2)s1)c1ccccc1Br	0%	-5	-16%	-1.8%
CN(Cc1ccccc1)C(=O)CN1CCN(C(c2ccccc2)c2ccccc2)CC1	6%	3	15%	1.2%
Cn1cnnc1SC1c2cccc3cccc(c23)C1NS(=O)(=O)c1ccccc1 (stereo not given)	1%	0	-1%	2.1%
COc1ccccc1NC(=O)Cn1cnc2sc(C(=O)Nc3cc(OC)c(OC)c(OC)c3)c(C)c2c1=O	14%	nt	10%	1.4%
C=CCn1c(CSc2ccccc2[N+](=O)[O-])n[nH]c1=S	0%	nt	-18%	1.5%
Cc1ccc2[nH]cc(C(=O)CCl)c2c1	17%	7	?	-1.5%
